# Source: PubChem BioAssay (National Center for Advancing Translational Sciences (NCATS))
# 2A Renilla: lowers the Renilla signal of an FMDV 2A StopGo reporter | HEK cells with a luciferase reporter of 2A StopGo recoding | 0.32% of 120,000 active | Potency, µM (titrated, usually from 57.5 µM), for inactives: at the top dose signal change, negative = less light; active means well fitted falling curve with a large enough effect; inconclusive means small, poorly fitted or top-dose-only effect; inactive means no such curve, though single readings can be large or run the other way; also: nearly all actives have a fitted effect of over 55% in size; overnight with compound
# 2A firefly: lowers the firefly signal of an FMDV 2A StopGo reporter; HEK cells with a luciferase reporter of 2A StopGo recoding; Potency, µM (top dose mostly 57.5 µM), for inactives: top-dose signal change, negative = less light; 0.23% of 120,000 active; active = well fitted falling curve with a large enough effect; inconclusive = small, poorly fitted or top-dose-only effect; inactive = no such curve, though single readings can be large or run the other way; also: nearly all actives have a fitted effect of over 60% in size; overnight with compound
# * = called active by the depositor; ? = inconclusive; [ ] = dose if it differs, or a comment. % is scaled to controls: 0 for no effect and ±100 for the full control effect; potency is read from the fitted curve at half-maximal effect. An excerpt; the hit share may differ from the screen's.
SMILES,2A Renilla,2A firefly
O=C(Nc1ccccc1Cl)N1CCC(CN2CCCC2)CC1,0%,-22%
CCOCCOC(=O)COc1ccc2c(=O)c(-c3ccc(Cl)cc3)c(C(F)(F)F)oc2c1,1%,0%
CCOc1ccc(NC(=O)c2ccc(Cl)c(-n3c(C)nc4cccnc43)c2)cc1,20%,2%
Cc1ccccc1NC(=O)c1ccc2c(O)c(S(=O)(=O)c3ccccc3)c(=O)[nH]c2c1,-13%,-18%
CCCCN(C)C(=O)c1sc2nc(C(C)(C)C)nc(C)c2c1C,26%,29%
CCN(CC)S(=O)(=O)c1ccc(-c2csc(=Nc3cccc(C(F)(F)F)c3)n2Cc2ccc3c(c2)OCO3)cc1,11%,-11%
CC(=O)c1cccc(NS(=O)(=O)c2cccc(S(=O)(=O)c3ccc(Br)cc3)c2)c1,-18%,?
CC(NC(=O)/C=C/c1ccc(Cl)cc1Cl)C1CC2CCC1C2 (stereo not given),13%,10%
COc1ccc(F)cc1CN(C)CC(=O)N1c2ccccc2NC(=O)CC1C (stereo not given),8%,12%
COc1ccccc1NC(=O)C1=C(C)Nc2nc(SCc3ccccc3F)nn2C1c1cccs1 (stereo not given),-18%,-11%
Cc1cnc(NC(=O)C(C)(C)Oc2cc(Cl)ccc2Cl)s1,0%,22%
O=C(NCCSCc1ccc(Cl)cc1)C1CCN(S(=O)(=O)Cc2ccccc2)CC1,7%,-15%
CCn1c(C)c(C2N3CC4(C)CN2CC(CC)(C3)C4=O)c2ccccc21 (stereo not given),17%,-1%
CCN1CCN(c2nc(C)c3c(c2C#N)CCCC3)CC1,9%,23%
CCOC(=O)c1cc(-c2ccc(S(=O)(=O)N3CCN(c4cc(C)ccc4C)CC3)s2)on1,18%,18%
O=C(C1CCCN(S(=O)(=O)c2cccc3nonc23)C1)N1CCN(c2ccccc2F)CC1 (stereo not given),-12%,-26%
COC(=O)C1CN(C)CCC1=O (stereo not given),-7%[1.06 µM],6%
Cc1nc2cc(NS(=O)(=O)c3cccc(Cl)c3)ccc2o1,121%[activator],-1%
O=C(Nn1cnnc1)c1cc(Cl)ccc1Cl,-5%,10%
O=c1c(N2CCN(c3cccc(C(F)(F)F)c3)CC2)csc2ccc(Cl)cc12,52%[activator],26%
Cc1ccc(CCNC(=O)C2CCN(Cc3nc(-c4ccccc4C)oc3C)CC2)cc1,-12%,-3%
COc1ccc(S(=O)(=O)Nc2c(NC3CCCC3)c3ccccc3oc2=O)cc1,9%,9%
CCN(C(=O)C(=O)Nc1ccc2nc3n(c(=O)c2c1)CCCCC3)c1ccccc1F,35%[activator],30%
COc1ccc(NC(=O)c2c(NCc3cccc(OC)c3)sc3c2CCC3)cc1,-8%,-7%
Cc1nonc1NC(=O)COc1ccc(C(C)C)cc1,-6%,14%
SMILES,2A Renilla,2A firefly
COc1ccc(C2CCCN2CC(=O)N(CCC#N)c2ccccc2F)cc1 (stereo not given),0%,-8%
CC[N+](CC)(CC)CCCOC1CC(C)CCC1C(C)C (stereo not given),?,?
N#C/C(=C/c1ccccc1)c1nc(-c2ccc3c(c2)-c2ccccc2C3)cs1,9%,0%
Cc1ccc(N2CCN(c3cc(C)nc4c(-c5ccc(Cl)cc5)c(C)nn34)CC2C)cc1 (stereo not given),-10%,-23%
Cc1ccc(-c2ccc(N)cc2)cc1,6%[1.06 µM],123%[activator]
Cc1sc(N)c(C#N)c1-c1ccc(CC(C)C)cc1,-1%,94%[activator]
CCCCc1nnc(NC(=O)Cn2ccc3ccc(F)cc32)s1,-9%,3%
Cc1ccccc1NC(=O)CSc1cn(CC(=O)N(C(C)C)C(C)C)c2ccccc12,-10%,-19%
Cc1ccc(CNC(=O)COC(=O)c2nc(-c3ccccc3)oc2C)cc1,-7%,-1%
COc1ccc(CN(Cc2ccco2)C(=O)c2cc(=O)c3ccccc3o2)cc1,48%[activator],-2%
COc1ccc2cc(COC(=O)C3COc4ccccc4O3)ccc2c1 (stereo not given),12%,0%
O=C(NCc1ccc(Cl)cc1)c1ncoc1-c1cccs1,24%,156%[activator]
O=C(Cn1cc(SCc2c(F)cccc2Cl)c2ccccc21)N1CCCCCC1,54%[activator],89%[activator]
O=C(Cn1cnc2ccccc2c1=O)N1CCCC1c1ccc2c(c1)OCCCO2 (stereo not given),-2%,-4%
Cc1ccccc1Nc1c(-c2ccco2)nc2c(C)cccn12,-10%,9%
CCc1ccc2nc(-c3ccccn3)cc(C(=O)O)c2c1,4%,22%
Cc1ccsc1C(=O)/C(C#N)=C\c1ccc(C(=O)O)cc1,0%,9%
COC(=O)c1ccc(CN(Cc2ccc(OC)c(OC)c2)S(=O)(=O)c2ccc(F)c(C(=O)Nc3cc(C)ccc3C)c2)cc1,13%,2%
COC(=O)c1c(-c2cccs2)csc1NC(=O)c1cc(OC)cc(OC)c1,-1%,12%
CCOC(=O)c1c(C)[nH]c(CCC(=O)NCc2ccccc2C)c1C,43%[activator],-13%
Cc1ccc(C)c(C(NC(=O)c2ccccc2C)c2cccnc2)c1 (stereo not given),23%,7%
O=C(N[C@@H](Cc1ccccc1)C(=O)NCc1cccs1)c1cccs1,63%[activator],15%
O=C1CC(c2ccc(OCc3ccc(Cl)cc3)cc2)c2c(nc(-c3ccccc3)[nH]c2=O)N1 (stereo not given),-5%,43%[activator]
CCOCCCNC(=O)c1ccc(-n2c(-c3ccccc3)cc3c2CCCC3)cc1,7%,43%[activator]
CCCCS(=O)(=O)CCS(=O)(=O)CCCC,0%,8%

# Part of the list above, reformatted:
Compound | 2A Renilla | 2A firefly
COc1ccc(C2CCCN2CC(=O)N(CCC#N)c2ccccc2F)cc1 (stereo not given) | 0% | -8%
CC[N+](CC)(CC)CCCOC1CC(C)CCC1C(C)C (stereo not given) | ? | ?
N#C/C(=C/c1ccccc1)c1nc(-c2ccc3c(c2)-c2ccccc2C3)cs1 | 9% | 0%
Cc1ccc(N2CCN(c3cc(C)nc4c(-c5ccc(Cl)cc5)c(C)nn34)CC2C)cc1 (stereo not given) | -10% | -23%
Cc1ccc(-c2ccc(N)cc2)cc1 | 6%[1.06 µM] | 123%[activator]
Cc1sc(N)c(C#N)c1-c1ccc(CC(C)C)cc1 | -1% | 94%[activator]
CCCCc1nnc(NC(=O)Cn2ccc3ccc(F)cc32)s1 | -9% | 3%
Cc1ccccc1NC(=O)CSc1cn(CC(=O)N(C(C)C)C(C)C)c2ccccc12 | -10% | -19%
Cc1ccc(CNC(=O)COC(=O)c2nc(-c3ccccc3)oc2C)cc1 | -7% | -1%
COc1ccc(CN(Cc2ccco2)C(=O)c2cc(=O)c3ccccc3o2)cc1 | 48%[activator] | -2%
COc1ccc2cc(COC(=O)C3COc4ccccc4O3)ccc2c1 (stereo not given) | 12% | 0%
O=C(NCc1ccc(Cl)cc1)c1ncoc1-c1cccs1 | 24% | 156%[activator]
O=C(Cn1cc(SCc2c(F)cccc2Cl)c2ccccc21)N1CCCCCC1 | 54%[activator] | 89%[activator]
O=C(Cn1cnc2ccccc2c1=O)N1CCCC1c1ccc2c(c1)OCCCO2 (stereo not given) | -2% | -4%
Cc1ccccc1Nc1c(-c2ccco2)nc2c(C)cccn12 | -10% | 9%
CCc1ccc2nc(-c3ccccn3)cc(C(=O)O)c2c1 | 4% | 22%
Cc1ccsc1C(=O)/C(C#N)=C\c1ccc(C(=O)O)cc1 | 0% | 9%
COC(=O)c1ccc(CN(Cc2ccc(OC)c(OC)c2)S(=O)(=O)c2ccc(F)c(C(=O)Nc3cc(C)ccc3C)c2)cc1 | 13% | 2%
COC(=O)c1c(-c2cccs2)csc1NC(=O)c1cc(OC)cc(OC)c1 | -1% | 12%
CCOC(=O)c1c(C)[nH]c(CCC(=O)NCc2ccccc2C)c1C | 43%[activator] | -13%
Cc1ccc(C)c(C(NC(=O)c2ccccc2C)c2cccnc2)c1 (stereo not given) | 23% | 7%
O=C(N[C@@H](Cc1ccccc1)C(=O)NCc1cccs1)c1cccs1 | 63%[activator] | 15%
O=C1CC(c2ccc(OCc3ccc(Cl)cc3)cc2)c2c(nc(-c3ccccc3)[nH]c2=O)N1 (stereo not given) | -5% | 43%[activator]
CCOCCCNC(=O)c1ccc(-n2c(-c3ccccc3)cc3c2CCCC3)cc1 | 7% | 43%[activator]
CCCCS(=O)(=O)CCS(=O)(=O)CCCC | 0% | 8%

# Next records follow:
SMILES,2A Renilla,2A firefly
O=C(N/N=C/c1ccc(Br)cc1)c1cccs1,34%[activator],196%[activator]
CCCn1nc(C(=O)NCC(c2cccs2)N2CCCC2)c2ccccc2c1=O (stereo not given),5%,3%
COc1ccc(CCNC(=O)CCCCn2c(=O)c3ccccc3n(Cc3cc(C)ccc3C)c2=O)cc1OC,-7%,-4%
CN(C(=O)Cn1c(=O)n(Cc2ccc3c(c2)OCO3)c(=O)c2sccc21)C1CCCCC1,3%,6%
Cc1ccc(NC(=O)C2CCCN(c3ncnc4c3nc3n4CCCCC3)C2)c(Br)c1 (stereo not given),-6%,-16%
Cc1ccc(C(=O)NCC(O)c2ccccc2)cc1 (stereo not given),0%,-54%
COC(=O)c1cc(C)nc2c1c(=O)nc(SCc1ccccc1Cl)n2C1CC1,-17%,-20%
Fc1ccc(Oc2ccc3nnc(-c4ccccc4)n3n2)cc1,2%,6%
Cc1ccccc1CNC(=O)c1ccc2nc(C(C)C)oc2c1,-6%,-5%
CCn1nc(C(=O)N2CC(C(=O)N3CCOCC3)Oc3ccccc32)c2ccccc2c1=O (stereo not given),8%,9%
O=C(CSc1ccc(Cl)cc1)NCCSc1nc2ccccc2s1,28%,29%
CC(=O)Nc1ccc(NC(=O)c2cc(S(=O)(=O)N3CCOCC3)c(Cl)cc2Cl)cc1,1%,0%
c1cncc(-c2nc(NC3CCN(C4CC4)CC3)c3ccccc3n2)c1,5%,7%
CCOC(=O)c1cc(-c2ccc(OC)c(S(=O)(=O)NCc3ccccc3Cl)c2)on1,43%[activator],-4%
O=C(CSc1ccc(Br)cc1)c1cccc2ccccc12,2%,0%
Cc1ccc(Cn2c(=O)c3ccccc3n3c(-c4ccccc4)nnc23)cc1,6%,-12%
COc1cccc(-c2nnc3n(Cc4ccccc4Cl)c(=O)c4ccccc4n23)c1O,12%,-23%
CCOc1ccc(-c2nn(-c3ccccc3)cc2C2NC(=O)NC(C)=C2C(=O)OC(C)C)cc1 (stereo not given),-10%,-22%
CC(NC(=O)Cc1cccs1)C12CC3CC(CC(C3)C1)C2 (stereo not given),9%,-7%
COc1ccc(C(=O)Nc2ccc3oc(=O)ccc3c2)cc1OC,98%[activator],0%
O=C(CN1CCCC1C(=O)Nc1ccc(Cl)cc1Cl)Nc1ccc(F)cc1F (stereo not given),35%[activator],-9%
CCOc1cc2ccccc2cc1C(=O)Nc1ccc2oc(C)nc2c1,5%,19%
CCCCn1c(-n2nc(C)c(C)c2C)nc2c1c(=O)n(CC(N)=O)c(=O)n2C,0%,2%
Nc1nc(CN2CCN(C(=O)COc3ccc(F)cc3)CC2)nc2ccccc12,-11%,14%
O=C(Nc1ccc(Oc2ccccc2)cc1)c1ccoc1,6%,39%[activator]
SMILES,2A Renilla,2A firefly
CC1CCCCC1NC(=O)c1ccc2c(c1)CCC2 (stereo not given),23%,125%[activator]
Cc1cccc(C(=O)N2CCN(c3ccc([N+](=O)[O-])c(-n4nc(C)c5ccccc5c4=O)c3)CC2)c1,-12%,-5%
C/C(=N/NC(=O)c1ccccc1[N+](=O)[O-])c1cccc(NC(=O)C2CCCCC2)c1,84%[activator],20%
CCN1CCC(N(Cc2ccc(F)cc2)C(=O)Nc2cccc(C(F)(F)F)c2)CC1,47%[activator],-7%
COC(=O)c1cccc(NC(=O)c2ccc(N3CCCCS3(=O)=O)cc2Cl)c1,?,?
COCCCNC(=O)Cn1cnc2c1c(=O)n(C)c(=O)n2C,-11%,-2%
CCOc1ccc(CN2C(=O)c3ccccc3Sc3ccc(C(=O)NCc4ccc(C)cc4)cc32)cc1,-9%,-14%
CC(C)[C@@H]1NC(=O)[C@H]2C[C@@]3(c4ccccc4)c4ccccc4N[C@H]3N2C1=O,4%,4%
COc1ccc(C(=O)OCc2ccc(Cl)c(Cl)c2)c(OC)c1OC,14%,105%[activator]
O=C(Nc1ccc2oc(-c3ccc(F)cc3)nc2c1)c1ccccc1F,-3%,63%[activator]
CCCCOc1cccc(C(=O)Nc2ccc3oc(-c4cccnc4)nc3c2)c1,?,?
CCn1c(-n2nc(C)c(C)c2C)nc2c1c(=O)n(CC(N)=O)c(=O)n2C,-4%,3%

# In the list so far, two contain a nitro group on carbon:
SMILES,2A Renilla,2A firefly
Cc1cccc(C(=O)N2CCN(c3ccc([N+](=O)[O-])c(-n4nc(C)c5ccccc5c4=O)c3)CC2)c1,-12%,-5%
C/C(=N/NC(=O)c1ccccc1[N+](=O)[O-])c1cccc(NC(=O)C2CCCCC2)c1,84%[activator],20%
